# Source: PubChem (Broad Institute)
# rRNA inh HTS – inhibitors of bacterial rRNA selective over humanized ribosomes; E. coli WT GFP vs humanized-ribosome RFP mutants, fluorescence, 24 h; stronger effect = lower value; DMSO median 0, no signal -100; GFP signal change (wild-type ribosome), % (concentration not given with the values); 350,000 tested, 1.6% active; AID 720706;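 active = significant combined selectivity score with lowered wild-type GFP, culture density cut under 30%, mutant RFP and density less affected; inactive = any of these conditions unmet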; note: one replicate is shown; some compounds called inactive have numbers as strong as hits
# rRNA inh HTS OD600 – second read-out of rRNA inh HTS, no call of its own (marks repeat the call); OD600 change, %; measured here: OD600 growth;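 optical density of the mix in the first replicate; 0 = DMSO median and -100 = no signal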
# rRNA inh HTS RFP – second read-out of rRNA inh HTS, no call of its own (marks repeat the call); RFP signal change, %; measured here: RFP humanized mutant strains;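 first replicate; 0 = DMSO median and -100 = no signal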
# Active calls of the source: *; & = joins results of further samples.
SMILES,rRNA inh HTS,rRNA inh HTS OD600,rRNA inh HTS RFP
C[C@@H]1CN([C@H](C)CO)C(=O)c2cc(NC(=O)Nc3cccc4ccccc34)ccc2O[C@H]1CN(C)Cc1ccc(C(=O)O)cc1,1,6,-2.0
CN(C)c1ccc(-c2csc(C(O)c3ccc(F)c(F)c3)n2)cc1 (stereo unspecified),-1,-10,-0.4
C[C@@H]1CN([C@@H](C)CO)C(=O)c2cccc(NS(=O)(=O)c3cccs3)c2O[C@@H]1CN(C)CC1CCCCC1,3,0,-0.4
CN(C)c1ccc2c(c1)[C@@H]1C[C@H](CC(=O)N3CCc4ccccc4C3)O[C@H](CO)[C@@H]1O2,-4,-8,-0.7
C[C@@H]1CN([C@H](C)CO)C(=O)c2cc(Br)cnc2O[C@@H]1CN(C)S(=O)(=O)c1ccc(F)cc1,-1,4,-3.1
C[C@@H](NC(=O)C[C@@H]1C=C[C@H](NS(=O)(=O)c2cccc(F)c2)[C@H](CO)O1)c1ccccc1,0,3,-1.3
C/C=C/c1ccc([C@H]2[C@@H](CO)N(c3nc(-c4ccccc4)cs3)[C@H]2C#N)cc1,-2,-23,3.1
Cc1noc(C)c1NC(=O)Nc1ccc2c(c1)C(=O)N([C@@H](C)CO)C[C@H](C)[C@H](CN(C)Cc1ccccc1)O2,3,7,0.5
CNC[C@H]1Oc2ccc(NC(=O)C3CC3)cc2C(=O)N([C@@H](C)CO)C[C@@H]1C,1,-4,-2.0
C[C@H](CO)N1C[C@H](C)[C@@H](CN(C)C(=O)Cc2cccnc2)Oc2ncc(C#CCc3ccccc3)cc2C1=O,-18&0,-14&-1,1.9&1.0
Cc1noc(C)c1NC(=O)N(C)C[C@@H]1Oc2c(NC(=O)c3ccc(-c4nccs4)cc3)cccc2C(=O)N([C@@H](C)CO)C[C@H]1C,0,8,0.1
CN(C[C@@H]1[C@@H](c2ccccc2)[C@H](CO)N1CC1CC1)C(=O)c1ccccc1,0,-6,-0.7
Cc1nc(C(F)(F)F)ccc1C(=O)N1CCC1(C)C(=O)NS(=O)(=O)c1ccc(F)cc1F (stereo unspecified),11,18,-2.9
CCN=C1NC(c2cccc(F)c2)C(C(=O)OC)=C(C)N1Cc1ccccc1C(F)(F)F (stereo unspecified),-20,-59,16
CO[C@@H]1CN(C)C(=O)c2ccc(NC(=O)c3cc(C)on3)cc2OC[C@@H](C)N(C(=O)C2CC2)C[C@H]1C,-3,-3,-2.1
CCCC#Cc1ccc([C@@H]2[C@@H](CO)N3CCCCN(C(=O)c4ccc5c(c4)OCO5)C[C@@H]23)cc1,-58,-74,-9.4
C[C@@H]1CN([C@@H](C)CO)C(=O)c2cc(C#CC3(O)CCCC3)cnc2O[C@@H]1CN(C)Cc1ccccn1,-4,-7,-1.4
CN(C)CC(=O)N[C@@H]1CC[C@@H](CCn2cc(C3CC3)nn2)O[C@@H]1CO,1,14,-0.9
COc1cccc(-c2cc3nc(NCc4ccc(C)cc4C)n(C)c(=O)c3s2)c1,7,11,-12
CCCC#Cc1ccc2c(c1)O[C@H](CN(C)C(=O)COC)[C@H](C)CN([C@H](C)CO)S2(=O)=O,-4,-16,-0.5
CN1[C@@H]2Cn3c(ccc(-c4cccc(F)c4)c3=O)[C@H]1[C@@H](C(=O)N1CCCCC1)[C@@H]2CO,6,12,0.4
CC1(C)ON=C(c2ccc(C(F)(F)F)cc2)NC1=O,5,7,-2.9
C[C@H]1CCCCO[C@H](CN(C)C(=O)c2ccccc2)[C@@H](C)CN([C@@H](C)CO)C(=O)c2cc(NC(=O)Nc3ccc(C(F)(F)F)cc3)ccc2O1,0,-1,-1.5
C[C@H](O)C#Cc1ccc2c(c1)O[C@H](CN(C)Cc1cccnc1)[C@H](C)CN([C@@H](C)CO)S2(=O)=O,-5,-4,-2.8
CO[C@H]1CN(C)C(=O)c2cc(NC(=O)C3CC3)ccc2OC[C@@H](C)N(Cc2nccs2)C[C@H]1C,-3,-7,0.7
C[C@H](CO)N1C[C@H](C)[C@@H](CN(C)S(=O)(=O)c2ccc(Cl)cc2)Oc2ccc(NC(=O)Cc3cn(C)c4ccccc34)cc2C1=O,-3,2,-0.1
C[C@H](CO)N1C[C@H](C)[C@H](CN(C)C(=O)Nc2ccc3c(c2)OCO3)Oc2ncc(C#Cc3cccc(F)c3)cc2C1=O,-1,-5,3.4
O=C(C[C@H]1C=C[C@@H](NC(=O)Nc2cc(F)ccc2F)[C@@H](CO)O1)NCc1ccc2c(c1)OCO2,-1,-6,1.1
COc1ccccc1C#Cc1ccc([C@@H]2[C@@H](CO)N3CCCCN(S(C)(=O)=O)C[C@H]23)cc1,1,6,0.0
CNC[C@@H]1Oc2ccc(NS(=O)(=O)c3cccs3)cc2C(=O)N([C@@H](C)CO)C[C@H]1C,2,6,-2.7
CC(=O)NC(c1ccc(F)c(F)c1)c1nc(-c2cccc(F)c2)cs1 (stereo unspecified),-7,-3,2.8
COc1ccccc1CN1[C@@H]2Cn3c(ccc(C4=CCCCC4)c3=O)[C@H]1[C@@H](C(=O)N(C)C)[C@@H]2CO,-2,-6,2.7
C[C@@H]1CN([C@@H](C)CO)C(=O)c2cc(-c3ccc(C#N)cc3)cnc2O[C@@H]1CN(C)C(=O)c1cccnc1,-1,3,-1.2
COC(=O)C1=C(C)N(Cc2ccc(C(F)(F)F)cc2)C(=NCc2cc(OC)c(OC)c(OC)c2)NC1c1cccc(Cl)c1 (stereo unspecified),-56,-80,-18
COc1cccc(-c2ccc([C@H]3[C@H]4CN(C(=O)CN5CCOCC5)CC(=O)N4[C@H]3CO)cc2)c1,2,11,-5.9
C/C=C/c1ccc2c(c1)O[C@H](CNC)[C@@H](C)CN([C@H](C)CO)S2(=O)=O,6,-2,15

# Three compounds from above, ordered by molecular weight, high to low:
SMILES,rRNA inh HTS,rRNA inh HTS OD600,rRNA inh HTS RFP
COc1ccccc1C#Cc1ccc([C@@H]2[C@@H](CO)N3CCCCN(S(C)(=O)=O)C[C@H]23)cc1,1,6,0.0
C/C=C/c1ccc2c(c1)O[C@H](CNC)[C@@H](C)CN([C@H](C)CO)S2(=O)=O,6,-2,15
CC(=O)NC(c1ccc(F)c(F)c1)c1nc(-c2cccc(F)c2)cs1 (stereo unspecified),-7,-3,2.8

# Continued.
SMILES,rRNA inh HTS,rRNA inh HTS OD600,rRNA inh HTS RFP
CO[C@@H]1CN(C)C(=O)c2cc(NC(=O)c3cnccn3)ccc2OC[C@H](C)NC[C@H]1C,6,1,-1.0
O=S(=O)(NCC[C@H]1CC[C@@H](NS(=O)(=O)c2ccccc2Cl)[C@@H](CO)O1)c1ccc(F)cc1,-2,-4,-0.8
COc1ccc(CNC(=O)c2sc(=O)n(Cc3ccc(C)cc3)c2C)cc1OC,-4,-11,-8.6
Cn1cnc(S(=O)(=O)N[C@H]2C=C[C@H](CC(=O)Nc3ccc(-c4ccccc4)cc3)O[C@H]2CO)c1,-3,-7,-0.8
C[C@@H]1CCCCO[C@H](CN(C)C)[C@@H](C)CN([C@@H](C)CO)C(=O)c2cc(NC(=O)C3CCCCC3)ccc2O1,2,3,3.1
COCC(=O)N1CC2(C1)[C@H](c1ccccc1)[C@@H](CO)N2CCC(F)(F)F,7,24,-0.1
C[C@@H]1CCCCO[C@H](CN(C)Cc2ccccc2)[C@H](C)CN([C@H](C)CO)C(=O)c2cc(NS(=O)(=O)c3cccs3)ccc2O1,0,-7,2.8
C[C@H](CO)N1C[C@H](C)[C@H](CN(C)C)Oc2ncc(-c3ccccc3F)cc2C1=O,7,14,0.2
O=C1CCC(=O)N[C@H](c2ccccc2)C/C=C\CCN1,4,6,-1.2
CCC(=O)N1CCC2(CC1)CN(Cc1ccc(Cl)cc1)[C@@H](CO)c1[nH]c3cc(OC)ccc3c12,0,-3,4.6
COc1cccc(S(=O)(=O)N[C@H]2CC[C@@H](CCNC(=O)Nc3cc(F)ccc3F)O[C@H]2CO)c1,-6,-2,2.2
C[C@@H]1CN([C@@H](C)CO)C(=O)c2cc(NC(=O)Nc3ccc(C(F)(F)F)cc3)ccc2O[C@H]1CN(C)Cc1ccc(Oc2ccccc2)cc1,2,-1,-1.8
CN1c2ccc(-c3ccc(F)cc3)cc2[C@@H]2[C@@H](CCN2C(=O)Nc2cc(F)ccc2F)[C@@H]1CO,-4,-5,-5.3
CCCC(=O)Nc1ccc2c(c1)C(=O)N(C)[C@H]1CC[C@H](CC(=O)NCC3CCCCC3)O[C@H]1CO2,1,-11,-1.3
COc1ccc(Cl)c(-c2cc(C(=O)Nc3ccc(C)c(NS(C)(=O)=O)c3)[nH]n2)c1,-39,-55,-11
COCc1[nH]nc2c1C(c1ccc(Br)cc1)N(c1ccc(OC)cc1)C2=O (stereo unspecified),-51,-76,-15
CCCC#Cc1ccc([C@H]2[C@@H](CO)N3C(=O)CN(C(=O)Nc4ccc(F)cc4)C[C@H]23)cc1,-11,-53,20
CCC(=O)Nc1ccc2c(c1)OC[C@@H](C)N(Cc1cncnc1)C[C@H](C)[C@H](OC)CN(C)C2=O,0,-5,-0.6
C[C@H]1CN([C@@H](C)CO)C(=O)c2cc(NC(=O)Cc3ccccc3)ccc2O[C@H]1CN(C)Cc1ccc(C(=O)O)cc1,0,2,1.1
C[C@@H]1CN([C@@H](C)CO)C(=O)c2cc(NC(=O)C3CCCCC3)ccc2O[C@H]1CN(C)S(=O)(=O)c1ccccc1,-1,-1,-0.8
C[C@@H]1CN([C@H](C)CO)S(=O)(=O)c2ccc(C#Cc3ccccn3)cc2O[C@H]1CN(C)Cc1ccccc1,-13,-21,4.9
COc1ccccc1-c1cnc2c(c1)C(=O)N([C@@H](C)CO)C[C@H](C)[C@@H](CN(C)Cc1cccnc1)O2,-1,1,-1.1
C[C@@H]1CN([C@H](C)CO)C(=O)c2cc(-c3ccc(F)cc3)cnc2O[C@H]1CN(C)Cc1ccc(C(=O)O)cc1,-5,11,-0.4
O=C(Nc1ccccc1)N1CC(=O)N2[C@H](CO)[C@@H](c3ccc(C#Cc4cccnc4)cc3)[C@@H]2C1,-3,3,-2.8
C=CCC[C@H](CCCCC)OC(=O)/C=C/[C@H](O)[C@@H](O)C[C@H](O)CC=C,0,-5,-1.9
O=C(Nc1cccc(F)c1)N1CC(=O)N2[C@@H](CO)[C@@H](c3ccc(-c4ccccc4)cc3)[C@@H]2C1,-10,-44,25
COc1ccc2c3c(n(C)c2c1)[C@@H](CO)N(CC1CC1)CC31CCN(C(=O)NC2CCCC2)CC1,2,-1,-1.0
Cc1noc(C)c1NC(=O)N(C)C[C@H]1OCCCC[C@@H](C)Oc2ccc(NC(=O)Nc3ccc(C(F)(F)F)cc3)cc2C(=O)N([C@@H](C)CO)C[C@H]1C,-3,3,2.6
CC=Cc1ccc2n(c1=O)C[C@@H]1[C@@H](CO)[C@H](C(=O)N3CCc4ccccc4C3)[C@H]2N1Cc1ccccc1 (mixture of isomers),-2,-21,12
O=C(NC[C@@H]1[C@@H](c2ccccc2)[C@@H](CO)N1Cc1ccccc1)c1ccccn1,2,3,-0.5
O=C1C=C(OCCCl)CC(c2cccc(Cl)c2)O1 (stereo unspecified),-4,-2,1.9
CN(C)C(=O)C[C@H]1C=C[C@@H](NC(=O)C2CC2)[C@@H](CO)O1,2,1,0.8
C[C@@H]1CCCCO[C@@H](CN(C)Cc2ccccc2)[C@H](C)CN([C@H](C)CO)C(=O)c2cc(NS(=O)(=O)c3cccs3)ccc2O1,5,-2,1.5
Cc1noc(C)c1NC(=O)Nc1ccc2c(c1)CC(=O)N([C@@H](C)CO)C[C@H](C)[C@@H](CN(C)Cc1ccncc1)O2,5,5,1.1
COc1cccc(S(=O)(=O)N[C@@H]2CC[C@@H](CC(=O)NC3Cc4ccccc4C3)O[C@H]2CO)c1,0,-3,2.7
COc1ncccc1C(=O)N1CCCC(C(=O)Nc2cccc(-c3ccc(F)cc3)c2)C1 (stereo unspecified),-7,-28,0.6

# Profiles as entered above.
# Record of C=CCC[C@H](CCCCC)OC(=O)/C=C/[C@H](O)[C@@H](O)C[C@H](O)CC=C → rRNA inh HTS: 0; rRNA inh HTS OD600: -5; rRNA inh HTS RFP: -1.9
# Record of COc1ccc2c3c(n(C)c2c1)[C@@H](CO)N(CC1CC1)CC31CCN(C(=O)NC2CCCC2)CC1 → rRNA inh HTS: 2; rRNA inh HTS OD600: -1; rRNA inh HTS RFP: -1.0

# (next part)
SMILES,rRNA inh HTS,rRNA inh HTS OD600,rRNA inh HTS RFP
Cc1c(Br)cccc1NC(=O)C1(C)CCN1CCc1ccccc1 (stereo unspecified),-36,-64,-5.5
C[C@H](NC(=O)C[C@H]1C=C[C@@H](NS(=O)(=O)c2cccc(F)c2)[C@H](CO)O1)c1ccccc1,4,14,-2.1
O=C(c1ccc2c(c1)OCO2)N1C[C@@H]2N[C@H](C1)C2c1ccc(-c2ccncc2)cc1 (stereo partly specified),6,7,-2.4
C[C@@H]1CN([C@H](C)CO)C(=O)c2cc(NS(C)(=O)=O)ccc2O[C@@H](C)CCCCO[C@H]1CN(C)Cc1ccc(Cl)c(Cl)c1,-37,-67,10.0
COc1ccc2c3c([nH]c2c1)[C@@H](CO)N(C(=O)CN(C)C)CC31CCN(CC2CCCCC2)CC1,5,-5,0.3
OC[C@@H]1[C@H]2c3ccccc3NC[C@H]2N1CC1CCCCC1,5,9,-0.9

# 3 entries already listed, sorted by their value in rRNA inh HTS, high to low.
molecule,rRNA inh HTS,rRNA inh HTS OD600,rRNA inh HTS RFP
O=C(c1ccc2c(c1)OCO2)N1C[C@@H]2N[C@H](C1)C2c1ccc(-c2ccncc2)cc1 (stereo partly specified),6,7,-2.4
COc1ccc2c3c([nH]c2c1)[C@@H](CO)N(C(=O)CN(C)C)CC31CCN(CC2CCCCC2)CC1,5,-5,0.3
C[C@H](NC(=O)C[C@H]1C=C[C@@H](NS(=O)(=O)c2cccc(F)c2)[C@H](CO)O1)c1ccccc1,4,14,-2.1

# A portion of the library. The share of hits here may be higher or lower than overall.
